Compound activity as filed in PubChem BioAssay.
Vif TR-FRET – inhibitors of Vif binding to APOBEC3G peptide, primary screen, biochemical, TR-FRET, GST-Vif 1-94, biotin-A3G peptide, dose response retest (AID 1117319); actives 0.57% (n = 260,000); TR-FRET GST-Vif / biotin-A3G peptide binding; higher % means a stronger effect; test concentration not given here; strong numbers were not always called active; inhibition, %, or IC50 in µM where a hit was titrated;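 active = above the screen mean plus three standard deviations and confirmed in dose response; inconclusive = results disagree or hit not tested in dose response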;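 note: Vif residues 1-94 fused to GST binding biotinylated APOBEC3G peptide 110-148; 0% = full assay without inhibitor and 100% = GST in place of GST-Vif; retest series ran down from 100 µM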
UCH37 DUB inh – blocks the human deubiquitinase UCH37; Q9Y5K5; purified proteasome/UCH37, Ub-AMC cleavage fluorescence; inhibition, % (concentration not given with the values); actives 0.33% (n = 330,000); AID 588478;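 active = mean of two replicates above 20%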;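 note: 0% = compound-free wells with enzyme and 100% = wells lacking proteasome; stock transfer was 100 nL into about 20 µL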
Target sequence (Q9Y5K5 whole entry, looked up): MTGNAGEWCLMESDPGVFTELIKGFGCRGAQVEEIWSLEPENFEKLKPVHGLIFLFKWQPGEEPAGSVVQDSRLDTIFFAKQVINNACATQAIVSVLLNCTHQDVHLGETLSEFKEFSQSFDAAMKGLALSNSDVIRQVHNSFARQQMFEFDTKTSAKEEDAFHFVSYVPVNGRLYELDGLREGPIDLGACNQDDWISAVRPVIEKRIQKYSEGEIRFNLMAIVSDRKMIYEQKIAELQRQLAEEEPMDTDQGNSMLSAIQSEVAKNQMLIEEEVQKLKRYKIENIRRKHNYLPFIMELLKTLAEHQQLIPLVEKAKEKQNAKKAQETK
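Material: human UCH37 enzyme supplied as purified proteasome complex / Amount: 0.15 nM proteasome as dispensed / Buffer or medium: pH 7.4 Tris-HCl (50 mM) with ovalbumin, ATP-MgCl2, DTT / Times: preincubation 30 min, reaction 25 min, room temperature / Technique: AMC fluorescence from Ub-AMC cleavage, excitation 355 nm, emission 460 nm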
Ecoli growth – inhibitors of Escherichia coli growth; OD600, 23 h; active compounds read low; OD600 absorbance (concentration not given with the values); actives 0.21% (n = 330,000); AID 1053175;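 active = OD600 absorbance below the run mean of sample wells minus 3.6 SD, in any replicate, cut at about 0.56 in these data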;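 note: stock transfer was 300 nL into about 60 µL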
Bfl-1 A1 inh – inhibitors of the anti-apoptotic protein A1, read as caspase activation | MEF A1-2A-BIM cells, Caspase-Glo 3/7 luminescence, 3 h; percent of clofoctol response, vehicle zero | caspase activation, % (concentration not given with the values) | actives 0.066% (n = 330,000) | AID 2462;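 active = over half of replicate activation scores above 10%, or exactly half above 10 with the replicate mean above 10; inconclusive = replicate mean below 10 yet half the replicates above 10; inactive = over half of replicates below 10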;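 note: wells of about 30 µL received 50 nL stock; many hits fall short of the cut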
B2AR ag – agonists of human beta-2 adrenergic receptor inducing internalization; Am2.2-beta2AR cells, FAP receptor internalization, flow cytometry; reference of the scale not given here; response, % (concentration not given with the values); AID 504454; actives 0.43% (n = 340,000); P07550;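 active = response above a set limit, near 3 SD of response in nonfluorescent compounds, cut at about 42% in these data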;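 note: stock transfer was 100 nL into about 11 µL; a reference agonist was the positive control; negative values mostly stem from fluorescent compounds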
Target sequence (P07550 whole entry, looked up): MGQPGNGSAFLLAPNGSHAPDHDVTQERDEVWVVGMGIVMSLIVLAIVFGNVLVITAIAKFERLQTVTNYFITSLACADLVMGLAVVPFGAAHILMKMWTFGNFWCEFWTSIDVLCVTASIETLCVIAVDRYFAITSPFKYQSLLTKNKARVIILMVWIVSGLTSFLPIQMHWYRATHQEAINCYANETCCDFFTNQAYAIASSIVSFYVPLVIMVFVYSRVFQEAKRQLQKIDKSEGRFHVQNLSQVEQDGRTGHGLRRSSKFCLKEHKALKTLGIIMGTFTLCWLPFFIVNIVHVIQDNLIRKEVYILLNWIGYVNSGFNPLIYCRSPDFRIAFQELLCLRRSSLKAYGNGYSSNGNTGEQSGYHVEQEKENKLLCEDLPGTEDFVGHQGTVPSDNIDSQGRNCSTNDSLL
LANA-H2B inh – blocks KSHV LANA binding to histone H2A/H2B. AID 2629. cell-free LANA-H2A/H2B peptide, fluorescence polarization. Q9QR71. inhibition, % (concentration not given with the values). actives 0.6% (n = 320,000); in the data active = inhibition mostly above about 10%, no sharp cut-off; inactive = mostly below about 6.7%;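 note: stock transfer was 7.5 nL into about 10 µL; 0% = median of vehicle wells and 100% = median of positive control wells; one replicate is shown; the record names a cut of 25% in any replicate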
HNF4A DNA FP – change in binding of human HNF4 alpha to DNA; activity change, % at 10 µM; actives 0.3% (n = 360,000); AID 1224865; HNF4a-FITC DNA binding, fluorescence polarization, 1 h; in the data active = activity change above about 30%, passing the limit was not always enough;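 note: controls were the assay level and a saturating level of protein; the project sought stronger binding though the title names inhibitors; some compounds called inactive have numbers as strong as hits; positive values seem to mean higher polarization but the record does not say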
* hit, by the source's call; ? = inconclusive; · = not tested or not shown.

SMILES	Vif TR-FRET	UCH37 DUB inh	Ecoli growth	Bfl-1 A1 inh	B2AR ag	LANA-H2B inh	HNF4A DNA FP
Cc1cc(NC(=O)CCC(=O)N(CC(=O)NC2CCCC2)c2cccc(F)c2)no1	·	5.1	0.68	0.5	5	5.5	0.9
CC(=O)c1cc(C#N)c(N2CCCC2)nc1C	19%	2.7	0.66	-0.3	-8	3.9	1.8
O=C(Nc1cccnc1)c1ccc(CN2CCc3ccccc3C2)cc1	6%	-0.2	0.63	-1.1	5	3.2	-0.3
C/C(=N\NC(=O)c1cccc([N+](=O)[O-])c1)c1ccco1	25%	·	·	0.3	-6	-3.5	-5.8
Cc1ccc(-n2c(=O)[nH]cc(C(=O)Nc3ccc4c(c3)OCCO4)c2=O)cc1C	-6%	3.5	0.69	0.7	5	-3.2	-1.1
COc1ccc2c(c1)CCc1cc(C(=O)N3CCN(c4ccc(N5CCOCC5)nn4)CC3)sc1-2	1%	-198	0.7	0.5	16	13	1.4
O=C(OCC(=O)C12CC3CC(CC(C3)C1)C2)c1cccnc1	·	3.9	0.71	-0.2	-3	-2.2	2.9
COC(=O)COc1ccc(S(=O)(=O)NCCC2=CCCCC2)cc1Cl	-3%	4.6	0.72	0.5	13	0.3	-3.0
Cc1cc(C)cc(NS(=O)(=O)c2ccc(-c3cnc(C4CC4)o3)cc2)c1	·	2.3	0.69	·	15	·	-0.9
O=C1C=C(NCc2ccc(Cl)c(Cl)c2)CC1	?	0.9	0.69	0.3	3	-2.4	2.2
O=S(=O)(CCc1nnc(-c2ccccc2)o1)c1ccc2ccccc2c1	5%	1.5	0.69	-0.7	2	-0.7	-2.3
O=C(NCCCN1CCOCC1)c1ccc(Br)s1	74%	4.6	0.73	-0.8	4	6.2	-1.7
COc1ccc(N(CCOc2ccccc2)S(=O)(=O)c2ccccc2)cc1	·	-1.7	0.7	0.2	0	6.9	1.7
Cc1ccc(C(=O)N/N=C/c2c[nH]c3ccccc23)o1	·	·	·	0.6	0	3.9	3.4
CC(Cc1ccccc1)NC(=O)CC(c1ccccc1)c1ccccc1O (stereo unspecified)	1%	2.2	0.68	1.5	0	2.0	0.3
CNCC(O)COc1ccccc1 (stereo unspecified)	-2%	4.6	0.66	0.7	2	-0.7	-1.8
COc1c(C)cc(C(=O)C2CCCN(C(=O)c3csc(C)n3)C2)cc1C (stereo unspecified)	·	6.2	0.71	0.8	2	0.1	1.8
Cc1ccc(N(Cc2cc(=O)[nH]c3ccccc23)C(=O)c2ccco2)cc1	-4%	-0.4	0.68	0.3	-5	-0.3	5.8
CC(C)(C)NC(=O)CN(c1cccc([N+](=O)[O-])c1)S(=O)(=O)c1ccccc1	-1%	-0.1	0.67	?	-1	-9.8	3.0
Cc1ccc2c(c1)C(c1ccc(F)cc1)N(C(=O)c1cc3ccccc3oc1=O)CC(=O)N2 (stereo unspecified)	-1%	2.3	0.73	0.4	-10	-0.8	-5.3
C[C@H](NC(=O)C1CCN(S(=O)(=O)c2ccccc2)CC1)C(=O)NCc1ccc(F)cc1	5%	-0.5	0.67	-0.2	-4	-3.4	0.9
Cc1ccc(NC(=O)c2cccc(S(=O)(=O)N(C)C3CCCCC3)c2)nc1	1%	1.2	0.65	0.1	-1	3.3	-5.6
Cc1ccccc1NC(=O)c1ccc(CSc2ncccn2)cc1	6%	1.1	0.73	-5.2	7	0.6	3.5
CCCn1c(O)c(/C=C2\C=NN=C2c2ccccc2)sc1=S	-8%	7.5	0.71	0.4	-10	1.7	0.7
COc1ccc(C)c2sc(N(CCN(C)C)C(=O)c3ccc4ccccc4c3)nc12	-5%	6.1	0.69	0.8	13	-3.1	-0.1
N#Cc1cnn2c1nc(N1CCOCC1)c1ccccc12	-44%	-21	0.64	-1.1	-2	0.4	2.1
CC1CCN(S(=O)(=O)c2ccc3c(c2)oc(=O)n3CC(=O)N2CCc3ccccc3C2)CC1	2%	2.8	0.73	0.0	-1	-1.1	0.4
CC1CCC2C(=O)N(c3ccc(Cc4ccncc4)cc3)C(=O)C2C1 (stereo unspecified)	3%	2.4	0.68	0.1	-1	6.8	-3.4
CC(C)(C)c1ccc(S(=O)(=O)N2CCN(CC(=O)NC(=O)NC3CCCCC3)CC2)cc1	4%	3.6	0.71	-0.6	6	-2.7	-0.3
CC(C)N(CCc1ccncc1)C(=S)Nc1ccc(F)c(Cl)c1	2%	4.0	0.7	0.1	-4	-2.3	-0.1
COc1ccccc1N1C(=NC(=O)C2CCCCC2)SC2CS(=O)(=O)CC21 (stereo unspecified)	·	0.2	0.67	0.4	8	1.8	0.6
O=C([C@H](Cc1ccc(O)cc1)n1cc(CCO)nn1)N1CCNCC1	-3%	2.2	·	0.4	-3	-0.9	0.5
O=C(COC(=O)CN1C(=O)C2CCCCC2C1=O)Nc1ccc(F)c(F)c1F (stereo unspecified)	·	-4.7	0.66	0.0	-3	2.5	-1.7
COc1ccc(OC)c(/C(C)=N\NC(=O)c2cc3cc(Cl)ccc3n2C)c1	·	·	·	1.2	-2	6.2	-1.7
COc1ccccc1CNC(=O)c1cccc(N(C)C)c1	27%	0.6	·	-0.1	2	-4.4	-9.0
COc1ccc(CCNC(=O)c2cccc(S(=O)(=O)N3CCCCCC3)c2)cc1	·	5.3	0.69	0.4	2	-0.6	6.9
CCC(=O)NN1CCN(c2ccncc2S(=O)(=O)N2CCCCC2)CC1	-6%	5.3	0.7	-0.3	-5	-0.8	-2.9
CSc1ccc(Cn2nnc(C(=O)NCc3ccccc3)c2N)cc1	3%	5.1	0.8	0.0	3	-8.7	0.7
CCCOC(=O)Nc1nc(-c2ccc(C)cc2)c(C)s1	-8%	1.4	0.68	0.0	9	3.0	0.7
O=C(CCNS(=O)(=O)c1ccc(Cl)cc1)Nc1ccncc1	·	-0.3	0.67	-0.5	2	-4.7	0.8
O=C(NC1Cc2ccccc2C1)c1cc(COc2ccc(F)cc2Cl)on1	-3%	0.8	0.7	0.3	2	-2.9	1.3
O=C(CN1CCN(S(=O)(=O)c2cccs2)CC1)NCC1CCCCC1	·	2.5	0.67	-0.1	-5	-2.5	-3.8
O=C(CSc1ccc(-c2ccccc2)nn1)N1CCOCC1	8%	1.4	0.69	-7.9	4	5.4	-2.1
Cc1ccc(NC(=O)CCc2ccc(C)o2)c(Br)c1	·	0.2	0.66	0.4	2	0.3	4.8
COc1ccccc1OCC(O)CN1C(=O)NC(C)(C)C1=O (stereo unspecified)	5%	-1.4	0.72	-0.4	-1	3.5	2.8
CCOc1c(C)cnc2c1c(=O)n(Cc1c(F)cccc1Cl)c(=O)n2C	-4%	-1.0	0.66	-0.1	-3	-0.1	-1.9
CCC(C)(C)n1nnnc1C(c1cc2ccc(OC)cc2[nH]c1=O)N1CCCCC1 (stereo unspecified)	26%	-5.4	0.65	1.5	8	0.9	7.8
COc1ccc(C(=O)Nc2cccc(C(=O)O)c2)cc1S(=O)(=O)N1CCCC1	·	-1.3	0.69	-9.5	0	-4.5	0.9
COc1ccc(C(=O)NNC(=O)CSc2nc(C(C)C)nc3ccccc23)cc1	·	0.9	0.65	0.4	-13	-2.7	-1.3
Cc1cccc(N2C(=O)SC(SC(=Nc3ccccc3)Nc3ccccc3)C2=O)c1 (stereo unspecified)	0%	2.0	0.66	-0.2	-2	4.5	1.1
O=C1[C@@H]2C(Cc3ccc(O)cc3)NC3(C(=O)Nc4ccc(F)cc43)[C@@H]2C(=O)N1c1ccc(F)cc1 (stereo partly specified)	65µM*	1.3	0.73	0.0	-4	-2.7	-4.2
O=C(c1ccccc1-c1nc(-c2ccccc2Cl)no1)N1CCOCC1	-4%	2.8	0.62	2.1	-3	2.0	1.0
CCCn1c(N)c(N(CCOC)C(=O)CSc2c(Cl)cccc2Cl)c(=O)[nH]c1=O	·	0.7	0.62	-0.7	4	-3.5	-5.0
CNS(=O)(=O)c1cc(-c2nnc(Nc3ccc(NC(C)=O)cc3)c3ccccc23)ccc1C	-6%	-7.9	0.67	0.3	1	-3.0	1.8
O=C(N1CCOCC1)N1CCN(c2nc(-c3ccc(F)cc3)cs2)CC1	3%	-0.3	0.7	0.4	-3	1.2	-1.2
COc1ccc(C(=O)Nc2ccc(S(=O)(=O)Nc3onc(C)c3C)cc2)c(OC)c1	29%	3.3	0.73	0.5	8	10	0.2
COc1ccc2[nH]c3c(=O)n(Cc4ccncc4)cnc3c2c1	11%	-274	0.72	1.4	6	4.3	3.4
COc1ccc(OC)c(/C=C2\SC(=S)N(Cc3cccnc3)C2=O)c1	·	6.0	0.69	0.3	-117	-0.9	71
O=c1cc(N2CCc3ccccc32)[nH]c(=O)n1-c1ccccc1	4%	-0.4	0.66	0.6	10	-0.7	-0.5
C=CCN(C(=O)CSc1nc2c(sc3ccccc32)c(=O)n1CCN(CC)CC)c1ccccc1	2%	-1.3	0.71	0.0	23	0.3	4.7

Four entries already listed, ordered by heavy-atom count, low to high:
SMILES	Vif TR-FRET	UCH37 DUB inh	Ecoli growth	Bfl-1 A1 inh	B2AR ag	LANA-H2B inh	HNF4A DNA FP
O=c1cc(N2CCc3ccccc32)[nH]c(=O)n1-c1ccccc1	4%	-0.4	0.66	0.6	10	-0.7	-0.5
COc1ccc(OC)c(/C=C2\SC(=S)N(Cc3cccnc3)C2=O)c1	·	6.0	0.69	0.3	-117	-0.9	71
O=C(N1CCOCC1)N1CCN(c2nc(-c3ccc(F)cc3)cs2)CC1	3%	-0.3	0.7	0.4	-3	1.2	-1.2
CNS(=O)(=O)c1cc(-c2nnc(Nc3ccc(NC(C)=O)cc3)c3ccccc23)ccc1C	-6%	-7.9	0.67	0.3	1	-3.0	1.8

Additional entries.
SMILES	Vif TR-FRET	UCH37 DUB inh	Ecoli growth	Bfl-1 A1 inh	B2AR ag	LANA-H2B inh	HNF4A DNA FP
COc1ccc(CCc2nnc(CCC(=O)N(C)Cc3ccnc4ccccc34)o2)cc1	2%	0.3	0.66	0.5	-8	1.9	-0.4
CC(C)OCC(O)CCc1n[nH]c(=S)n1-c1ccccc1 (stereo unspecified)	·	2.6	0.65	2.6	11	0.8	-1.9
CCc1ncc(CN2CCCC(C(=O)Nc3cccc(-c4cccc(C)c4)c3)C2)cn1 (stereo unspecified)	·	1.6	0.71	0.0	-13	1.4	0.2
CCN(CC(=O)Nc1ccc(C)c(F)c1)CC(=O)NC(C)(C)C	-4%	3.2	0.69	0.2	0	-4.5	1.0
O=C(N/N=C\c1ccccc1)c1ccccc1-n1cccc1	-3%	·	·	0.5	7	-4.1	1.3
Cn1cccc1CC(=O)NNC(=S)Nc1ccc(Cl)cc1	25%	·	·	-0.3	-4	-6.7	1.4
Cc1ccc(C)c(NCC(O)c2ccccc2)c1 (stereo unspecified)	0%	3.9	0.73	0.2	-12	-1.3	0.5
COc1ccc(-c2sc(Nc3ccccc3)n[n+]2-c2ccc(F)cc2)c(C)c1C	·	1.5	0.67	0.9	10	4.8	0.8
CCOc1ccccc1OCC(=O)Nc1cc(S(=O)(=O)N2CCCCC2)ccc1N1CCN(CC)CC1	-3%	5.3	0.68	0.3	10	4.3	-0.1
O=S(=O)(c1ccc(F)cc1)N1CCN=C1SCc1cccnc1	10%	2.7	0.66	1.1	-3	-1.3	6.2
Cc1ccccc1N(C(=O)c1csnn1)C(C(=O)NC(C)(C)C)c1ccncc1 (stereo unspecified)	-8%	·	·	0.2	-5	-3.6	-0.3
CN(C1CCCCC1)S(=O)(=O)c1ccc(S(=O)(=O)N2CCN(C(=O)c3ccccc3F)CC2)cc1	14%	5.4	0.75	-0.9	-1	-3.8	-3.0
